Assay outcomes (PubChem)
N370S GC: N370S glucocerebrosidase modulation, Gaucher chaperone candidate | P04062 | AID 2101 | 0.092% of 330,000 active | Potency, µM (series often up to 59.4 µM), for inactives: at the top dose activity change, negative = inhibition, most hits filed as inhibitors | N370S GC spleen homogenate, 4MU-glucoside fluorescence; active means well fitted inhibition curve with a large enough effect; inconclusive means small, poorly fitted or top-dose-only effect, or effect the other way, or another doubt; inactive means no such curve, though single readings can be large or run the other way;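 further: 0% = full enzyme activity and -100% = no enzyme basal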
Active calls of the source: *; u = inconclusive; & = joins results of further samples; [ ] = dose if it differs, or a comment. Potency means the concentration at half of the fitted maximal effect.

SMILES	N370S GC
CCCOc1ccc(C2c3c(oc4cc(C)c(C)cc4c3=O)C(=O)N2CCCN(C)C)cc1OCC (stereo not given)	-13.7%
CCCNC(=O)NC(=O)CN1C(=O)NC(C)(c2ccc(C)cc2)C1=O (stereo not given)	-4.8%
O=C(N/N=C/c1ccc2c(c1)OCO2)C(O)c1ccccc1 (stereo not given)	-7.7%
CCC1=NC(c2ccc(OC)cc2OC)N(O)C1(C)C (stereo not given)	-7.9%
COc1ccccc1N/C=C(\C#N)c1nc2ccccc2[nH]1	4.3%
Oc1ccccc1N1CCN(c2ncnc3scc(-c4ccc(F)cc4)c23)CC1	-10.9%
Cc1cccc(CNc2cc(-c3cccnc3)ncn2)c1	-0.2%
Cc1ccc2c(c1)C(=O)C(=O)N2CC(=O)Nc1ccc(N2CCOCC2)cc1	1.1%
CC(C)(C)N(Cc1ccccc1)C(=O)COC(=O)[C@@H]1CCCN1C(=O)c1cccs1	2.0%
Cc1cccc(OCCN2C(=O)C(=O)c3cccc(C)c32)c1	0.5%
O=C(c1ccccc1[N+](=O)[O-])N1CCCN(C(=O)c2ccccc2[N+](=O)[O-])CC1	-0.4%
COc1ccc([C@H]2Oc3cc(O)cc(O)c3C(=O)C2[C@@H]2C(=O)c3c(O)cc(O)cc3O[C@@H]2c2ccc(OC)cc2)cc1 (stereo not given in full)	-15.2%
O=C(/C=C/c1ccccc1[N+](=O)[O-])NCc1ccccc1Cl	4.0%
CC(C)=CCCC(C)C1CC[C@@]2(C)C3=C(CC[C@@]12C)C1(C)CCC(O)C(C)(C)C1CC3 (stereo not given in full)	-13.4%
CCC(=O)N1CCc2cc(S(=O)(=O)NC(C(=O)N3CCN(c4ccc(F)cc4)CC3)C(C)C)ccc21 (stereo not given)	-5.1%
COc1ccccc1NC(=O)N1C2CCCC1CC(NC(=O)c1ccccc1)C2 (stereo not given)	6.0%
CCOC(=O)C1CCCN(C(=O)c2cccc(S(=O)(=O)N3CC(C)OC(C)C3)c2)C1 (stereo not given)	2.0%
Cc1noc(C)c1S(=O)(=O)Nc1ccc(C(=O)NC2CCCCC2C)cc1 (stereo not given)	-1.9%
CCc1nnc(NC(=O)CCC(=O)NCc2ccc(OC)cc2)s1	2.8%
O=C(O)CCSc1nnc(SCC(=O)NCC(F)(F)F)s1	1.6%
Cc1cc(/C=N\NC(=O)CC(=O)NC2CCCCC2)c(C)n1-c1ccc(Cl)c(Cl)c1	-0.9%
Cc1cccc(CNc2ccc(C(CC(N)=O)NC(=O)c3cccc(Br)c3)cc2[N+](=O)[O-])c1 (stereo not given)	-5.1%
COc1ccc(C(=O)Nc2cccc(/C(C)=N/NC(=O)c3ccc([N+](=O)[O-])c(C)c3)c2)cc1OC	6.0%
COc1ccc(S(=O)(=O)N2c3ccccc3OCC2C(C)(C)C)cc1 (stereo not given)	19.1%
Cc1ccc2c(c1)c1ncnc(N3CCOCC3)c1n2C	22.3%

(list continues)
SMILES	N370S GC
CC(NC(=O)CNC(=O)c1sc2ccccc2c1Cl)c1cccnc1 (stereo not given)	2.7%
CC1CCCC2(C1)NC(=S)N(c1ccccc1)N2 (stereo not given)	1.4%
Cc1cccc(NC(=O)C2CCCN2S(=O)(=O)c2ccc(Cl)cc2)n1 (stereo not given)	1.7%
c1ccc(-c2ncnc3nc4n(c23)CCC4)cc1	u
CCCCCc1ccc(C(=O)CCC(=O)OCC(=O)N(CC)c2c(N)n(Cc3ccccc3)c(=O)[nH]c2=O)cc1	-0.5%
COC(=O)[C@]1(Cc2ccccc2)N[C@H](c2ccc(-c3ccc4c(c3)OCO4)cc2)[C@@H]2C(=O)N(C)C(=O)[C@@H]21	1.8%
O=C(Nc1ccccc1)c1cccc(S(=O)(=O)Nc2ccccn2)c1	20.3%
COc1cccc(CC(=O)N2CCC(CCC(=O)Nc3cccc(OC)c3)CC2)c1	-12.0%
Cc1cccc(/C=N/NC(=O)c2ccccc2OCc2cccc(Br)c2)n1	21.2%
CN(C)c1ccc(CNc2ncc(Br)cc2Br)cc1	6.5%
CS(=O)(=O)N(Cc1ccccc1)c1ccc(C(=O)N2CCOCC2)cc1	-2.1%
CCC(C)(C)NC(=O)CN(C(=O)CCC(=O)Nc1ccccn1)c1ccc2c(c1)OCO2	-7.3%
O=C(N/N=C/c1ccccc1)c1cc(-c2ccc3c(c2)OCO3)n[nH]1	-11.1%
O=C(Nc1ccc2c(c1)CCCN2C(=O)c1cccs1)c1c(F)cccc1Cl	-3.4%
Cc1ccccc1-c1cc(C(=O)Nc2nc3c(s2)CCCC3)c2ccccc2n1	-1.3%
COC(=O)NC(=S)N1CCOCC1	10.5%
CC(C)N(CC(N)=O)C(=O)c1sc2cc(F)ccc2c1Cl	-1.5%
COc1ccc2c3c1OC1C[C@@H](O)C=C[C@@]31CCN(C)C2 (stereo not given in full)	-7.4%
O=C(C1=NN(c2ccccc2)C2C(=O)N(c3ccc(Cl)cc3)C(=O)C12)c1ccccc1 (stereo not given)	2.1%
CC1=NN(C(=O)COc2ccc(C)c(C)c2)C(O)(c2ccccc2)C1 (stereo not given)	0.3%
COc1ccc(CNC(=O)C/C(C)=N/NC(=O)C(c2ccccc2)c2ccccc2)cc1	-9.4%
COc1ccc(N2C(=O)NC3CC2(C)Oc2ccccc23)cc1OC (stereo not given)	-2.9%
N#Cc1nc(-c2ccco2)oc1NCCc1ccccc1	10.3%
c1ccc(-n2nnnc2-c2cnc(-c3cccnc3)nc2-c2cccs2)cc1	12.9%
COCC(C)NC(=O)c1cccc(Cl)c1 (stereo not given)	4.0%

Copied from the list:
For N370S GC, CCC(=O)N1CCc2cc(S(=O)(=O)NC(C(=O)N3CCN(c4ccc(F)cc4)CC3)C(C)C)ccc21 (stereo not given) has -5.1%
For N370S GC, c1ccc(-n2nnnc2-c2cnc(-c3cccnc3)nc2-c2cccs2)cc1 has 12.9%
For N370S GC, CC(C)N(CC(N)=O)C(=O)c1sc2cc(F)ccc2c1Cl has -1.5%
For N370S GC, COc1ccc([C@H]2Oc3cc(O)cc(O)c3C(=O)C2[C@@H]2C(=O)c3c(O)cc(O)cc3O[C@@H]2c2ccc(OC)cc2)cc1 (stereo not given in full) has -15.2%
For N370S GC, CCC1=NC(c2ccc(OC)cc2OC)N(O)C1(C)C (stereo not given) has -7.9%

(more compounds)
SMILES	N370S GC
COC(=O)[C@H](Cc1ccccc1)NC(=O)Nc1ccc(C)cc1	18.1%
COc1ccc(/C=N/NC(=O)Cn2cc(C(F)(F)F)ccc2=O)cc1	0.7%
c1ccc2[nH]c(-c3ccnc4ccccc34)nc2c1	-0.7%&4.8%
Cc1ccc(NC(=O)COC(=O)COc2cccc3c2OC(C)(C)C3)cc1S(=O)(=O)N1CCOCC1	-14.7%
Nc1cc(=O)[nH]c(SCC(=O)Nc2cccnc2Cl)n1	-10.4%
CCN(CC)C(=O)CN(c1cc2c(cc1OC)oc1ccccc12)S(=O)(=O)c1ccc(C)cc1	17.7%
CC(=O)c1cc(Cc2csc(C(C)=O)c2)cs1	9.9%[2.35 µM]
CC(C)N(C(=O)CSc1nnc(Cc2csc(Nc3ccccc3)n2)o1)C(C)C	-4.1%
COCC1CCCN(Cc2cn[nH]c2-c2cc3ccccc3o2)C1 (stereo not given)	-9.4%
COC(=O)c1ccc(Cn2cc(C(F)(F)F)cc([N+](=O)[O-])c2=O)cc1	-0.8%
CC(NC(=O)CSCc1ccccc1Br)c1ccccc1 (stereo not given)	-13.0%
CN(C(=O)C1CCC(=O)N(C2CC2)C1)C1CCCCC1 (stereo not given)	-0.6%
CCOC(=O)C1(CC2CCCCO2)CCN(Cc2cc(F)ccc2-n2cccn2)CC1 (stereo not given)	-1.4%
CN1CCN(c2ccc(NC(=O)c3ccc([N+](=O)[O-])o3)cc2Cl)CC1	8.7%
Cc1nn(-c2ccccc2)c(C)c1C(=O)OCC(=O)N1c2ccccc2NC(=O)C1(C)C	18.6%
CCOC(=O)CCn1c(CC(=O)OCC)nc2ccccc21	-4.5%
CC(C)CCN1CCNC(=O)C1CC(=O)N(C)CCCN1CCOCC1 (stereo not given)	-7.5%
O=C(/C=C/c1ccc(F)cc1)NCc1cccs1	16.8%
Cc1cc(C)c(C#N)c(SCCS(=O)(=O)Cc2ccccc2)n1	-2.8%
CCOC(=O)c1c(-c2ccc(OC)cc2)cn2ccccc12	10.9%
COc1ccc(NC(=O)NCc2cccnc2)cc1	3.6%
Cc1ccc2nc(-c3ccc(NS(=O)(=O)c4ccc(F)c(F)c4)cc3)sc2c1	7.0%
COc1ccc(C(=O)Nc2ccccc2N2CCCC2)cc1S(=O)(=O)N1CCOCC1	-2.0%
Cc1cc(SCC(=O)Nc2cccc(S(=O)(=O)N3CCOCC3)c2)nc2ccccc12	14.3%
COc1ccc([N+](=O)[O-])cc1NS(=O)(=O)Cc1ccccc1	-5.3%

(continued)
SMILES	N370S GC
COCCN(C(=O)COC(=O)c1ccc(Cl)nc1)c1c(N)n(Cc2ccccc2)c(=O)[nH]c1=O	-5.9%
CCCNC(=O)CC(NS(=O)(=O)c1ccc(Cl)cc1)c1ccco1 (stereo not given)	0.8%
O=C(Nc1ccc2c(c1)OCO2)C1COc2ccccc2O1 (stereo not given)	-8.0%[2.35 µM]
CCCc1cc(C(=O)Nc2ccc(F)cc2F)no1	0.3%
CCc1nn(CCCC(=O)NCc2ccco2)c(=O)c2cc3occc3n12	4.0%
NC(=O)CC(NC(=O)Cc1cccc2ccccc12)c1ccc(N2CCC(Br)CC2)c([N+](=O)[O-])c1 (stereo not given)	3.4%
Cn1ncc(Cl)c1C(=O)Nc1ccc(Cl)cn1	2.8%
COc1ccc(-n2c(Cc3cccn3C)nnc2SCC(=O)NCc2ccc(F)cc2)cc1	11.3%
COc1ccc(C(CNC(=O)c2nn(-c3ccccc3)c(=O)c3ccccc23)N2CCOCC2)cc1 (stereo not given)	-12.1%
CN(c1ccccc1)S(=O)(=O)c1ccc(C(=O)Nc2nccs2)cc1	-2.1%
O=C(/C(=N\O)n1cncn1)c1ccc(Cl)cc1Cl	-11.3%
CC(C)Cn1c(SCC(=O)c2ccc(Cl)s2)nnc1-c1ccco1	-6.4%
Cn1c(-c2ccccc2)c(/C=N/NC(=O)c2ccc(O)cc2)c2ccccc21	-0.9%
CCOC(=O)C1CCCN(C(=O)CCCn2c(=O)c3cccn3c3cccnc32)C1 (stereo not given)	-7.1%
COc1ccc(CCC(=O)Nc2sc(C(=O)N(C)C)c(C)c2C#N)cc1	-13.5%
Cc1cc(=O)oc(C)c1C(=O)NCCC1=CCCCC1	-1.0%
CC(C)(C)OC(=O)c1c(N)n(CCCN2CCCC2=O)c2nc3ccccc3nc12	u
O=S(=O)(NCCOCC(F)(F)F)c1ccc2oc3ccccc3c2c1	0.5%
CN(C(=O)c1ccccc1)c1ccc(OCC(=O)NC2CCS(=O)(=O)C2)cc1 (stereo not given)	14.2%
COc1nc(N)c(S(=O)(=O)c2ccc(C)cc2)cc1C#N	4.6%
Cc1sc(NC(=O)CSc2nnnn2C2CCCCC2)c(C#N)c1C	-2.0%
CCn1c(CNC(=O)c2ccccc2F)cc2ccccc21	7.3%
C#CCSc1nc2[nH]ncc2c(=O)[nH]1	2.4%
Cc1nn(C)cc1CNC(=O)c1ccc(Br)o1	-5.7%
CCOC(=O)N/N=C/c1c(C)c(C(=O)c2ccc(F)cc2)n2ccccc12	3.1%

Four of the compounds above, as labelled records:
Cn1c(-c2ccccc2)c(/C=N/NC(=O)c2ccc(O)cc2)c2ccccc21
- N370S GC: -0.9%

CCOC(=O)C1CCCN(C(=O)CCCn2c(=O)c3cccn3c3cccnc32)C1 (stereo not given)
- N370S GC: -7.1%

COc1ccc(CCC(=O)Nc2sc(C(=O)N(C)C)c(C)c2C#N)cc1
- N370S GC: -13.5%

Cc1cc(=O)oc(C)c1C(=O)NCCC1=CCCCC1
- N370S GC: -1.0%

The listing picks up, repeating the two entries before the break.
SMILES	N370S GC
Cc1nn(C)cc1CNC(=O)c1ccc(Br)o1	-5.7%
CCOC(=O)N/N=C/c1c(C)c(C(=O)c2ccc(F)cc2)n2ccccc12	3.1%
CCC(=O)Nc1cccc(Br)c1	3.4%
CC1=Nc2cc(C(=O)O)ccc2Sc2ccc(C)cc21	-0.4%
CCc1cc2c(=O)c(-c3nc4ccccc4[nH]3)coc2c(CN2CCCCC2)c1O	-16.9%
COc1ccc(/C=C/C(=O)O)cc1S(=O)(=O)NCC1CCCO1 (stereo not given)	5.0%
COc1cccc(OCCCN2CCCCC2)c1	-6.4%
CCNc1nc(NCC)n2c(SCC(=O)c3ccccc3F)nnc2n1	5.6%
COc1ccccc1NC(=O)CNC(=O)c1ccccc1C	4.5%
COc1cccc(CNC(=S)NC2CCCC2)c1	-6.9%
CC(=O)c1cccc(N(CC(=O)NC2CCCC2)C(=O)c2ccc(C)s2)c1	-15.7%
Cn1ncc(Br)c1C(=O)NC1CCCCCC1	-0.3%
COc1ccccc1N1CCN(C(=O)/C=C/c2cccc([N+](=O)[O-])c2)CC1	8.9%
COc1cc([N+](=O)[O-])c2ncsc2c1	22.7%
COc1ccc(/C=C(\NC(=O)c2cccs2)C(=O)Nc2ccc(C)cc2)cc1OC	7.4%
Cc1ccc(Cl)cc1NC(=O)CCC(=O)NCc1ccco1	-8.7%
N#CCSc1nc2cc(C(=O)N3CCCC3)ccc2c(=O)n1Cc1ccccc1	11.6%
c1csc(Cc2nn3c(-c4n[nH]c5c4CCC5)nnc3s2)c1	4.2%
Cc1cc(Nc2ccc(Cl)cc2)nc(N2CCOCC2)n1	u
Cn1cccc1Cc1nnc(SCC(N)=O)n1CCc1ccccc1	-9.0%
CN(C)c1ccc(P(=O)(CC(=O)N/N=C/c2ccc(C#N)cc2)OCCCl)cc1 (stereo not given)	8.1%
CCOC(=O)c1nn(-c2cccc(Cl)c2)c2nc(Nc3ccccc3)cc(=O)n12	14.1%
CN1CCN(C(=O)/C=C\C(=O)O)CC1	4.5%

Arranged by number of heavy atoms (low to high): some entries from above
SMILES	N370S GC
Cn1ncc(Br)c1C(=O)NC1CCCCCC1	-0.3%
COc1cccc(OCCCN2CCCCC2)c1	-6.4%
CN(C)c1ccc(P(=O)(CC(=O)N/N=C/c2ccc(C#N)cc2)OCCCl)cc1 (stereo not given)	8.1%
CCc1cc2c(=O)c(-c3nc4ccccc4[nH]3)coc2c(CN2CCCCC2)c1O	-16.9%

A portion of the library, and most or all hits are left out here.
